# Screening data from PubChem BioAssay.
# FGF22 binding – shifts melting point of recombinant human FGF22 | Q9HCT0 | recombinant FGF22 thermal shift, SYPRO orange fluorescence; percent of sucrose octasulfate shift, DMSO zero | calls only at 9.99 µM | hit rate 1.5% among 340,000 | AID 651658;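 active = melting point raised past a set limit in the mean and every replicate; three in four hits are not shown here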
# Target sequence (Q9HCT0 whole entry, looked up): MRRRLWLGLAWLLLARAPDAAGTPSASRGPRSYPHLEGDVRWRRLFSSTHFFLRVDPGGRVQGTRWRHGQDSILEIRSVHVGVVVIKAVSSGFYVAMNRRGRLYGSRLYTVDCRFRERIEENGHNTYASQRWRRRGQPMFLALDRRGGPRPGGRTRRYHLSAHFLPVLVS
# rRNA inh HTS – inhibits bacterial ribosomal RNA function over humanized ribosomes | E. coli WT GFP vs humanized-ribosome RFP mutants, fluorescence, 24 h; stronger effect = lower value; DMSO median 0, no signal -100 | GFP signal change (wild-type ribosome), % (no concentration beside the values) | hit rate 1.6% among 350,000;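 active = significant combined selectivity score with lowered wild-type GFP, culture density cut under 30%, mutant RFP and density less affected; inactive = any of these conditions unmet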; also: one replicate is shown; some compounds called inactive have numbers as strong as hits
# ALR inh – blocks human ALR sulfhydryl oxidase activity | P55789 | purified ALR, DTT oxidation, H2O2 HRP-luminol luminescence | inhibition, % (test concentration not listed) | hit rate 3.8% among 290,000 | AID 485317;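 active = mean and each replicate at 75% or more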;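 also: stock transfer was 7.5 nL into about 7.5 µL; 0% = neutral wells and 100% = wells with inactivated enzyme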
# Target sequence (P55789 whole entry, looked up): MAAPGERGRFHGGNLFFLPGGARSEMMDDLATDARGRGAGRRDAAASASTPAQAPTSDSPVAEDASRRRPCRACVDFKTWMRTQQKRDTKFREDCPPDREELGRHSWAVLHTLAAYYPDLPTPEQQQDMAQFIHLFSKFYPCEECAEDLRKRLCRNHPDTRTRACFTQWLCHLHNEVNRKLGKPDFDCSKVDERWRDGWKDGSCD
# Ecoli growth – inhibitors of Escherichia coli growth | OD600 absorbance (test concentration not listed) | hit rate 0.21% among 330,000 | OD600, 23 h; stronger effect = lower value;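 active = OD600 absorbance below the run mean of sample wells minus 3.6 SD, in any replicate, cut at about 0.56 in these data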;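 also: stock transfer was 300 nL into about 60 µL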
# HNF4A DNA FP – change in binding of human HNF4 alpha to DNA. HNF4a-FITC DNA binding, fluorescence polarization, 1 h. activity change, % at 10 µM. hit rate 0.3% among 360,000; in the data active = activity change above about 30%, passing the limit was not always enough;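 also: controls were the assay level and a saturating level of protein; the project sought stronger binding though the title names inhibitors; some compounds called inactive have numbers as strong as hits; positive values seem to mean higher polarization but the record does not say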
# UCH37 DUB inh – inhibitors of human deubiquitinating enzyme UCH37; Q9Y5K5; purified proteasome/UCH37, Ub-AMC cleavage fluorescence; inhibition, % (no concentration beside the values); hit rate 0.33% among 330,000; AID 588478;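 active = mean of two replicates above 20%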;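 also: 0% = compound-free wells with enzyme and 100% = wells lacking proteasome; stock transfer was 100 nL into about 20 µL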
#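 Signal – fluorescence, ex 355 nm, em 460 nm · System – Proteasome-bound UCH37 · Input – 0.15 nM proteasome as dispensed · Timing – 30 min preincubation with enzyme, 25 min cleavage at room temperature · Read-out basis – percent inhibition of cleavage signal versus uninhibited and no-proteasome wells · Medium – Tris-HCl pH 7.4 with ATP-MgCl2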
# B2AR ag – agonists of human beta-2 adrenergic receptor inducing internalization | response, % (concentration not given with the values) | hit rate 0.43% among 340,000 | Am2.2-beta2AR cells, FAP receptor internalization, flow cytometry; reference of the scale not given here;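 active = response above a set limit, near 3 SD of response in nonfluorescent compounds, cut at about 42% in these data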;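 also: stock transfer was 100 nL into about 11 µL; a reference agonist was the positive control; negative values mostly stem from fluorescent compounds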
# Target sequence (P07550 whole entry, looked up): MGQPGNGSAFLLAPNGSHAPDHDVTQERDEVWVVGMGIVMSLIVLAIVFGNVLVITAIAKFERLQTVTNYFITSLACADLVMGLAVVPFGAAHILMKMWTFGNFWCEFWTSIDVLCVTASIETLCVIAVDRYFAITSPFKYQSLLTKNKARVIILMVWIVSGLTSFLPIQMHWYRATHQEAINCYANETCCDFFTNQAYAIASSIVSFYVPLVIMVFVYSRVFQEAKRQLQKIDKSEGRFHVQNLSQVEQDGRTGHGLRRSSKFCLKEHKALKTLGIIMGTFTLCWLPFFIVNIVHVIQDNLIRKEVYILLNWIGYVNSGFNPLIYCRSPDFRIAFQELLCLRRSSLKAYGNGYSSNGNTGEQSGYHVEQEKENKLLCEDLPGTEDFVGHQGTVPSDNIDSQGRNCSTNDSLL
# rRNA inh HTS OD600 – also measured in rRNA inh HTS; calls as there; OD600 change, %; measured here: OD600 growth;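 optical density of the mix in the first replicate; 0 = DMSO median and -100 = no signal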
# rRNA inh HTS RFP – second read-out of rRNA inh HTS, no call of its own (marks repeat the call); RFP signal change, %; measured here: RFP humanized mutant strains;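 first replicate; 0 = DMSO median and -100 = no signal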
# An asterisk follows results filed as active; i = inactive; . = not tested or not shown. An excerpt (hit frequency here may not be typical).
canonical_smiles	ALR inh	rRNA inh HTS	rRNA inh HTS RFP	UCH37 DUB inh	B2AR ag	FGF22 binding	Ecoli growth	rRNA inh HTS OD600	HNF4A DNA FP
COC(=O)C1=C(C)N(C)C(=S)N(C)C1c1cccc(Br)c1 (stereo unspecified)	-3	-34*	-6.0*	3.8	6	i	0.67	-6.9*	2.5
COc1cc(NC(=O)Nc2ccc(C)cc2)cc([N+](=O)[O-])c1	-2	11	2.8	0.5	-9	i	0.67	13	0.5
CC1(C)Cc2ccccc2-c2nnc(SCC(=O)N3CCc4ccccc43)n21	2	.	.	6.3	-7	.	0.71	.	0.3
Cc1ccc(CNC(=O)CCC(=O)Nc2nnc(C3CCCCC3)s2)cc1	-12	.	.	3.0	-1	i	0.68	.	3.9
Cn1cccc1C(=O)OCC(=O)Nc1sccc1C#N	3	8	6.1	-0.4	-8	i	0.66	16	4.6
c1cnc(N2CCN(c3nc4ccccc4n4cnnc34)CC2)nc1	-8	.	.	-26	-11	.	0.65	.	1.5
Cc1cccc(Oc2cc(NC(=O)Cn3cnc([N+](=O)[O-])n3)cc([N+](=O)[O-])c2)c1	.	.	.	5.6	-2	.	0.73	.	-3.9
COc1ccc(CCNC(=O)CCNS(=O)(=O)c2cc(Br)cnc2N)cc1OC	-5	-9	-0.6	-0.4	0	i	0.66	-7	-3.0
Cc1oc2cc([N+](=O)[O-])c(O)c([N+](=O)[O-])c2c1C(=O)c1ccc(Br)cc1	-8	-54	-11	13	2	i	0.66	-74	1.7
O=C(COc1ccccc1Br)Nc1ccc2c(c1)OCCCO2	.	-16	-1.3	1.6	-1	i	0.63	-43	-4.0
Cc1c(Cl)c(C(F)(F)F)nn1CC(=O)N1CCSCC1	-2	.	.	1.1	-2	.	0.67	.	2.3
CCOC(=O)N1CCC(NC(=O)CCc2ccccc2)CC1	-6	10	-0.2	0.7	-11	i	0.63	9	2.5
Clc1nc(NCc2ccco2)nc(N2CCCCC2)n1	1	12	11	0.5	-4	i	0.69	0	1.0
O=[N+]([O-])c1ccccc1Oc1cnc2ccccc2n1	-2	9	5.4	4.1	1	i	0.71	3	1.2
CS(=O)(=O)c1cccc(C(=O)OCC(=O)Nc2ccc3c(c2)OCO3)c1	-8	3	-4.2	1.8	0	i	0.68	18	-3.9
CCOC(=O)N(Cc1ccccc1)Cc1ccc(C(=O)N[C@@H](Cc2ccccc2)C(=O)O)cc1	0	.	.	0.1	6	i	0.67	.	-3.5
COc1ccccc1OCC(=O)NCCSCc1cccc(Cl)c1	.	.	.	-0.1	4	.	0.67	.	1.3
CC(CCc1ccccc1)NC(=S)NC(=O)c1ccco1 (stereo unspecified)	.	-25	0.4	2.7	-12	.	0.62	-34	-1.4
FC(F)(F)c1ccc(N2CCN(c3ncnc4c3nnn4Cc3ccccc3Cl)CC2)cc1	-2	.	.	2.4	-7	.	0.75	.	-1.6
Cc1onc(-c2ccccc2Cl)c1C(=O)Nc1cccc(S(=O)(=O)N2CCOCC2)c1	-11	0	0.6	1.1	3	i	0.66	-17	1.6
CCNC(=S)N/N=C/c1ccc(C(=O)O)cc1	6	8	-18	.	-2	i	.	5	2.3
Cc1cc(C)cc(C(=O)NC(CC(N)=O)c2ccc(NC3CCCCCC3)c([N+](=O)[O-])c2)c1 (stereo unspecified)	-3	6	0.9	4.6	-2	i	0.7	7	14
CCCCCc1c(C)nc(Nc2ccc(F)cc2)[nH]c1=O	-4	.	.	1.2	-2	.	0.64	.	-0.3
CCOC(=O)CC(NC(=O)C1c2ccccc2Oc2ccccc21)c1ccccc1Cl (stereo unspecified)	-2	6	0.3	1.0	6	i	0.69	8	6.0
CN1c2ccccc2C(C)(C)C12C=Cc1cc(O)ccc1O2 (stereo unspecified)	80*	-17	58	2.2	6	i	0.62	2	35*

canonical_smiles	ALR inh	rRNA inh HTS	rRNA inh HTS RFP	UCH37 DUB inh	B2AR ag	FGF22 binding	Ecoli growth	rRNA inh HTS OD600	HNF4A DNA FP
COc1ccc(S(=O)(=O)N2CCN(C(=O)C3CCCCC3)CC2)cc1	-5	2	-0.4	1.2	-3	i	0.67	-11	4.3
COc1ccc2c(c1)C(=O)N1[C@H]3c4cc(Br)ccc4OC[C@@H]3[C@H](c3ccccc3)[C@]1(C)C(=O)N2	-4	.	.	0.2	5	.	.	.	6.1
O=C(CC1SC(=Nc2ccccc2)N(Cc2ccccn2)C1=O)Nc1cccc(Cl)c1 (stereo unspecified)	-15	-6	23	4.8	2	i	0.72	-26	5.1
Clc1ccccc1-c1nn2c(-c3ccccn3)nnc2s1	-15	.	.	3.6	-26	.	0.67	.	0.4
COC(=O)c1ccc(/C=N/NC(=O)CC(=O)NC2CCCCC2)cc1	-21	1	-3.2	.	-5	i	.	11	1.3
CCC(C(=O)OCC(=O)Nc1ccc(F)cc1)c1ccccc1 (stereo unspecified)	0	.	.	3.9	0	i	0.72	.	-1.1
Cc1cc(N2CCC(C(=O)NC3CCCCC3)CC2)nc(-c2ccccc2)n1	-12	.	.	4.5	1	.	0.74	.	2.8
O=C(NCc1ccccc1F)C1CCCN(S(=O)(=O)c2ccc(-n3cnnn3)cc2)C1 (stereo unspecified)	-4	7	-1.5	6.3	0	i	0.65	7	0.3
CC(C(=O)O)C1SC(=O)NC1=O (stereo unspecified)	-1	.	.	1.2	-2	.	0.69	.	0.8
Cn1nc(C(F)(F)F)c(C(=O)Nc2ccc(F)cc2F)c1Cl	-2	10	-1.8	1.2	-18	.	0.65	-1	1.7
CNC(=O)NNC(=O)c1onc(-c2c(Cl)cccc2Cl)c1C(=O)OC	16	.	.	7.1	-1	i	0.7	.	9.2
O=C(N/N=C/c1cccnc1)c1ccc2ccccc2c1O	28	7	3.7	.	-4	i	.	6	4.3
COC(=O)Nc1ccc2c(c1)N(C(=O)CCCl)c1ccccc1S2	7	-8	0.4	-1.1	-4	.	0.7	-20	-2.4
CC(/C=N/Nc1nncc(=O)[nH]1)=C\c1ccccc1	-16	11	15	.	4	i	.	18	1.3
CCOc1ccc(-c2cc(C(=O)NCCCn3ccnc3)c3cc(Br)ccc3n2)cc1	-3	22	8.1	.	50*	i	.	17	1.3
O=C(Cc1ccccc1)Nc1nnc(-c2ccco2)o1	.	1	-1.0	5.3	4	i	0.68	6	-1.1
COc1ccc(N2CCN(C(=O)c3ccc(NS(=O)(=O)c4cccs4)cc3)CC2)cc1	22	-23*	0.5*	-0.5	-1	i	0.69	-18*	-2.7
Cc1ccccc1OCC(=O)Nc1nc(-c2ccncc2)cs1	-5	0	-1.3	0.1	10	i	0.7	1	6.2
O=C(c1ccccc1)c1cc[n+]([O-])cc1	-8	.	.	2.0	-18	.	0.72	.	-0.5
Cc1nn(CCCC(=O)NC(C)c2ccccc2)c(=O)c2nn(-c3ccccc3)c(C)c12 (stereo unspecified)	-1	-3	9.8	1.0	-7	i	0.66	2	-1.6
Cc1ccc(OCCC(=O)OCC(=O)NC2CCCC(C)C2C)cc1 (stereo unspecified)	14	1	2.5	0.8	6	i	0.7	6	-4.6
CC(=O)c1cccc(NC(=O)CN2C(=O)COc3ccc(Cl)cc32)c1	-1	13	-0.1	-0.9	3	i	0.67	0	-0.2
CC(Oc1ccc(Cl)cc1Cl)C(=O)NCCC1=CCCCC1 (stereo unspecified)	-17	.	.	3.1	-17	.	0.67	.	0.9
Cc1cc(C(F)F)n2nc(C(=O)Nc3sc4c(c3C#N)CCC4)nc2n1	6	8	9.8	11	-28	i	0.65	5	-1.3
NC(c1ccccc1)c1csc(NC(=O)NCC2CCCCC2)n1 (stereo unspecified)	.	-59	-17	.	.	i	.	-78	-1.4

# Structures listed so far marked active in ALR inh:
canonical_smiles	ALR inh	rRNA inh HTS	rRNA inh HTS RFP	UCH37 DUB inh	B2AR ag	FGF22 binding	Ecoli growth	rRNA inh HTS OD600	HNF4A DNA FP
CN1c2ccccc2C(C)(C)C12C=Cc1cc(O)ccc1O2 (stereo unspecified)	80*	-17	58	2.2	6	i	0.62	2	35*

# Three compounds already listed, sorted by formula weight, rising:
canonical_smiles	ALR inh	rRNA inh HTS	rRNA inh HTS RFP	UCH37 DUB inh	B2AR ag	FGF22 binding	Ecoli growth	rRNA inh HTS OD600	HNF4A DNA FP
CC(C(=O)O)C1SC(=O)NC1=O (stereo unspecified)	-1	.	.	1.2	-2	.	0.69	.	0.8
Cc1ccccc1OCC(=O)Nc1nc(-c2ccncc2)cs1	-5	0	-1.3	0.1	10	i	0.7	1	6.2
NC(c1ccccc1)c1csc(NC(=O)NCC2CCCCC2)n1 (stereo unspecified)	.	-59	-17	.	.	i	.	-78	-1.4

# Going on with the list:
canonical_smiles	ALR inh	rRNA inh HTS	rRNA inh HTS RFP	UCH37 DUB inh	B2AR ag	FGF22 binding	Ecoli growth	rRNA inh HTS OD600	HNF4A DNA FP
Cc1ccc(C2c3sc(=O)[nH]c3SC3C(=O)NC(=O)C32)cc1 (stereo unspecified)	48	.	.	2.7	-1	.	0.76	.	0.1
FC(F)(F)c1cc(-c2ccco2)nc(NCc2ccco2)n1	.	.	.	-7.3	-3	.	0.7	.	2.0
Cn1ncc(Br)c1C(=O)N1CCOCC1	-7	11	1.4	2.4	-4	i	0.61	16	-0.9
O=C(C1CCCO1)N1CCN(Cc2nc3ccccc3c(=O)[nH]2)CC1 (stereo unspecified)	-2	.	.	0.2	-8	.	0.69	.	-0.3
CC1(C2CC2)NC(=O)N(CC(=O)Nc2ccc(SC(F)F)cc2)C1=O (stereo unspecified)	-5	0	4.1	1.6	3	i	0.69	-12	5.1
CN(Cc1ccccc1)C(=O)c1oc(=O)c2ccccc2c1-c1ccccc1	0	.	.	2.7	-6	.	0.68	.	-1.5
COc1ccc(C(=O)NCN2CCN(c3ccccc3)CC2)cc1OC	.	5	-6.4	-2.1	-6	i	0.7	12	-3.2
CCOc1cc(CNc2ccc3c(c2)OCCO3)cc(Br)c1OC	.	.	.	5.1	46*	.	0.69	.	-0.7
O=C(Nc1ccccc1C(=O)O)c1ccc(Br)o1	1	-14	-3.1	5.0	-3	i	0.65	-13	1.0
Cn1c(=O)c2[nH]c(COc3ccccc3)nc2n(C)c1=O	.	15	8.7	-8.3	-1	i	0.68	39	-28
Nc1cc(N2CCCCCC2)c2nonc2c1[N+](=O)[O-]	-22	11	13	-0.6	7	i	0.69	7	1.1
CCN(C(=O)CSc1n[nH]c(-c2ccc(OC)cc2)n1)c1c(N)n(Cc2ccccc2)c(=O)[nH]c1=O	.	12	-2.3	0.6	-18	i	0.62	5	18
COc1ccc(CC(=O)N2CCN(c3cccc(Cl)c3)CC2)cc1OC	.	-11	-3.5	2.1	0	i	0.72	-17	0.2
COC(=O)C(C(=O)OC)N1C(=O)CCC1=O	-14	9	-3.6	2.3	4	i	0.68	9	3.5
CC(Oc1cc2oc(=O)c3c(c2cc1Cl)CCC3)C(=O)NCc1cccnc1 (stereo unspecified)	1	0	-0.9	-244	-14	i	0.65	6	1.6
O=C(NN=Cc1c(O)ccc2ccccc12)c1ccc2c(c1)OCO2	-36	7	3.7	-23	9	i	0.59	14	3.2
COC(=O)c1ccccc1C(=O)N(c1ccccc1)c1ccccc1	-30	0	2.4	5.8	1	i	0.64	7	1.0

# Look-ups from the entries so far:
# `COC(=O)C(C(=O)OC)N1C(=O)CCC1=O` – HNF4A DNA FP: 3.5
# `Cc1ccc(C2c3sc(=O)[nH]c3SC3C(=O)NC(=O)C32)cc1` (stereo unspecified) – B2AR ag: -1
